High-throughput results from PubChem.
Rce1 inhib = yeast Rce1p protease inhibitors, primary screen, biochemical, fluorescence, cell-free homogeneous; 290,000 compounds, 0.27% hits; calls only; AID 2563, 2010; yeast membranes, quenched prenylated peptide cleavage fluorescence;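 active means fall in fluorescence gain of 50% or more versus controls, with final raw signal at or below 3038400; inconclusive means same 50% fall but final raw signal above 3038400; inactive means fall in fluorescence gain under 50%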;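 further: plate controls were neutral control wells for no effect and wells lacking membranes for full effect; tested at 10 µM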
Target sequence (Q03530 whole entry, looked up): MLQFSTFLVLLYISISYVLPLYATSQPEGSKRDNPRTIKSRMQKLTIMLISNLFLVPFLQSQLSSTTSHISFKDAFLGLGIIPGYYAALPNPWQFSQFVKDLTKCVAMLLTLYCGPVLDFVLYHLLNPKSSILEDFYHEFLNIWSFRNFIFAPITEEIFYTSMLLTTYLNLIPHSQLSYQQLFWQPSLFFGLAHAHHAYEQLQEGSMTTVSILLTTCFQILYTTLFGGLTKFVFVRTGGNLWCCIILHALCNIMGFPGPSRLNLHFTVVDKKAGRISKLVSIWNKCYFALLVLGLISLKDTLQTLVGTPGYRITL
CSC inhib = cancer stem cell viability inhibitors, primary screen, luminescence; cancer stem cell-like cells viability; inhibition, % at 7.5 µM; 300,000 compounds, 1.1% hits; AID 2717, 2010;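 active means mean at 75% or more and at least half the replicates too; inconclusive means mean and replicates disagree; tested in HMLE shEcad cells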;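 further: 0% = median of negative and 100% = median of positive control wells; the first replicate is given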
PABP polyA inh = PABP poly(A) RNA binding inhibitors, primary screen, biochemical, fluorescence polarization, uHTS | 290,000 compounds, 1% hits | inhibition, % at 35 µM | Polyadenylate-binding protein 1 (Homo sapiens), P11940;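 active means 50% or more with normal probe brightness, or confirmed in later tests; inconclusive means above 50% with abnormal brightness, or retests that disagree; inactive means below 50% or failed in later tests; about a fifth of its hits are not listed in these tables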;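 further: calls also rest on retests at 20 µM and on dose response follow-up; controls were probe without protein and protein plus probe with vehicle; some compounds called inactive have numbers as strong as hits; many hits fall short of the cut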
HIV Env fusion = inhibitors of HIV-1 Env-driven cell-cell fusion, primary screen, HeLa-JRFL effector, CEM21 target cells, luciferase | inhibition, % at 12.3 µM | 360,000 compounds, 1.1% hits | AID 651610, 2012;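 active means mean replicate inhibition score of at least 50 and every replicate individually at or above 50; inconclusive means only one of the two criteria met; inactive means mean below 50 and not all replicates reaching 50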;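 further: 0% = plate neutral controls and 100% = maraviroc near 300 nM; one replicate is shown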
Yeast UUG start = modulators of yeast start codon fidelity, primary screen, whole organism, S. cerevisiae, single point, plate reader. activity score, % at 18.7 µM. S. cerevisiae UUG-firefly luciferase reporter, luminescence/redox ratio. AID 602363, 2012. 350,000 compounds, 0.13% hits;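 active means replicate mean at a twofold rise or more, about +100% in these data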;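 further: firefly luciferase made from a UUG start codon reports start codon fidelity; reporter light over untreated wells divided by growth signal over untreated wells; some hits fall short of that in this replicate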
MT1-MMP act inh = blockers of MT1-MMP proenzyme processing, primary screen, HT1080 RFP-PRO-GFP cells, GFP/RFP fluorescence; Matrix metalloproteinase-14 (Homo sapiens), P50281; GFP/RFP ratio fluorescence, overnight; percent of plate control window, DMSO zero; GFP/RFP ratio change, % at 20 µM; 360,000 compounds, 0.061% hits; AID 651647, 2012;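 active means GFP/RFP ratio change of at least 30% with cell ATP level not reduced by more than half and red fluorescence within 50% of control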; further: strong numbers were not always called active
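Material – HT1080 RFP-PRO-GFP cells · Control set – DMSO wells and RFP-L50D-GFP cells · Incubation – overnight cell settling, then overnight compound exposure, 37 °C, 5% CO2 · Compound dosing – single-point 20 µM compound, 1% DMSO · Read-out – GFP/RFP fluorescence ratio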
eIF4H inh = human eIF4H binding inhibitors, primary screen, translation initiation inhibitor project, biochemical, uHTS, fluorescence polarization; AID 2012, 2009; eIF4H fluorescence polarization binding assay; Eukaryotic translation initiation factor 4H (Homo sapiens), Q15056; 290,000 compounds, 0.94% hits; inhibition, % at 35 µM;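 active means 50% or more with normal probe brightness, or confirmed in later tests; inconclusive means above 50% with abnormal brightness, or retests that disagree; inactive means below 50% or failed in later tests; about a fifth of its hits are not listed in these tables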;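 further: calls also rest on retests at 20 µM and on dose response follow-up; 0% = protein and probe with vehicle and 100% = probe without protein; strong numbers were not always called active; many hits fall short of the cut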
eIF4H inh retest = second read-out of eIF4H inh, no call of its own (marks repeat the call); inhibition, %; compound at 20 µM; confirmation average;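 mean of two retest wells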
PABP polyA inh retest = further read-out of PABP polyA inh, marked with its call; inhibition, %; compound at 20 µM; confirmation repeats;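 mean of two retest wells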
MT1-MMP act inh RFP = further read-out of MT1-MMP act inh, marked with its call; RFP signal change, %; measured here: RFP expression control read;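 0 = vehicle wells; hits needed this value within 50% of zero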
The depositor's hits bear a star; i = inactive; ? = inconclusive; / = no result given; + = active, no number. Only part of the results is shown, so the mix of outcomes need not match the whole.

SMILES	Rce1 inhib	CSC inhib	PABP polyA inh	HIV Env fusion	Yeast UUG start	MT1-MMP act inh	MT1-MMP act inh RFP	eIF4H inh	others
COc1ccc([N+](=O)[O-])cc1NC(=O)COC(=O)c1ccccc1C(=O)c1ccccc1	i	4	5	/	1	0	-3	-2
Cc1ccc(-c2noc(CN3C(C)CCCC3C)n2)cc1 (centres undefined)	i	6	-2	9	-9	-5	0	4
COc1ccc2c(c1)CCC1C2CCC2(C)C(O)C(=O)CC12 (centres undefined)	/	/	/	19	-9	2	-4	/
CNc1nc(N)c(C(=O)C(C)(C)C)s1	i	0	34	-41	/	-2	0	5
COc1ccc(N(CC(=O)NCc2ccccc2)S(C)(=O)=O)cc1	i	-7	12	-12	/	4	3	4
CCn1ccc(C(=O)Nc2ccc(N(C)C(C)=O)cc2)n1	i	-5	-11	/	12	5	9	5
CCN(C(=O)CSc1nnc(-c2ccc(OC)cc2)n1C(C)C)C1CCS(=O)(=O)C1 (centres undefined)	/	/	/	-47	-4	2	2	/
CCCCCNC(=O)C1CC(=O)OC12CCCCC2 (centres undefined)	i	-4	7	-20	/	0	6	1
O=C(OCC(=O)c1ccccc1)C1=NN(c2ccccc2)C(=O)CC1	/	-22	/	/	-5	-2	4	/
N#Cc1sc2nc(N3CCCCC3)c3c(c2c1N)CCCC3	i	45	-2	/	-9	-1	-2	-6
Cc1cc(=O)oc2cc(OCC(=O)Nc3c(Cl)cccc3C(F)(F)F)ccc12	i	-2	-3	-3	7	3	3	-7
COc1ccc(C(NC(=O)C(C)C)c2ccc3cccnc3c2O)cc1 (centres undefined)	i	104*	56	-45	-9	2	-6	42	eIF4H inh retest=12;PABP polyA inh retest=4
Cn1c(NCCN2CCCCC2)cc(=O)n(C)c1=O	i	-12	-2	/	-5	0	0	-9
CCOC(=O)c1c(C)oc(C)c(C(=O)OCC)c1=O	i	-12	1	10	-13	-1	2	12
O=C(NCC1CCCO1)c1cccc(S(=O)(=O)N(Cc2ccccc2)c2ccccc2)c1 (centres undefined)	i	0	/	3	8	-4	-2	/
CC(=O)Oc1ccc(N(C(C)=O)S(=O)(=O)c2ccc(C)c([N+](=O)[O-])c2)cc1	i	-3	-1	26	/	6	3	-2
Cc1ccc(S(=O)(=O)/N=C2/NC(=O)/C(=C/c3cc([N+](=O)[O-])ccc3O)S2)cc1	i	/	12	-4	6	-57	3	19
CCOn1c(=O)c(-c2cccc(Br)c2)[n+]([O-])c2ccccc21	i	-20	-7	8	-10	0	0	3
O=C(CN(Cc1cccs1)C(=O)CNS(=O)(=O)c1ccccc1)NCc1ccco1	i	/	5	/	-5	4	9	4
CC1=NN(C(=O)c2ccco2)C(O)(c2ccccc2)C1 (centres undefined)	i	-5	-5	18	-18	0	5	-1
COCC(=O)Nc1nc(-c2ccccc2)c(C)s1	i	-8	2	/	-22	-4	1	-2
O=C(NNC(=O)c1cc(-c2ccccc2)n(-c2ccccc2)n1)c1cccc([N+](=O)[O-])c1	i	0	37	6	/	8	7	10
Cc1ccc(N(CC(O)CN2CCCCC2)S(=O)(=O)c2ccc(C)cc2)cc1 (centres undefined)	i	-5	-3	-2	-5	-2	4	0
O=C(CCn1nnnc1CN1CCOCC1)N1CCC(c2cccc(Cl)c2)C1 (centres undefined)	i	-4	0	1	-4	2	0	-6
Cc1ccc(-c2nc3s/c(=C\c4ccco4)c(=O)n3n2)cc1	i	5	45*	?	-8	-2	4	82*	eIF4H inh retest=93*;PABP polyA inh retest=66*
O=C(Nc1ccccc1)N(Cc1ccc2c(c1)OCO2)Cc1nc2ccccc2c(=O)[nH]1	i	/	-6	/	-2	8	-3	-3
CC(=O)c1cccc(NC(=O)CN(c2ccc(F)cc2)S(C)(=O)=O)c1	i	-1	2	/	-3	-3	0	-5
COc1ccc(Br)cc1C(=O)Nc1cccc(NC(=O)c2ccco2)c1	i	/	4	-26	-13	4	-4	-2
Cc1cccc(OC(C)C(=O)NC2CCS(=O)(=O)C2)c1C (centres undefined)	i	-8	1	/	-13	-1	4	8
Cc1ccc2c(c1)CCCN2C(=O)c1cc2ccccc2oc1=O	i	/	-3	/	-15	4	1	-3
COc1ccc(/C=C/C(=O)C23CC4CC(CC(C4)C2)C3)cc1CN1CCOCC1	i	0	-16	-5	/	-14	-13	-3
O=C(COC(=O)c1cc([N+](=O)[O-])ccc1N1CCOCC1)c1ccc(OC(F)F)cc1OC(F)F	i	0	/	-22	/	1	-5	/
COC(=O)[C@H](C)N(Cc1ccc(Cl)c(Cl)c1)S(=O)(=O)CCN1CCCC1	/	/	/	13	-11	2	3	/
CCCN1CCN(C(=O)CN2C(=O)COc3ccc(S(=O)(=O)N(CC)CC)cc32)CC1	i	/	-8	-4	-20	2	4	-3
COc1ccc(CCc2nnc(CCC(=O)N(C)Cc3ccncc3C)o2)cc1	i	2	-2	8	/	-4	-2	8
O=C(Nc1ccc(C(=O)N2CCN(c3ccccc3F)CC2)cc1)C1=CSCCO1	i	-17	5	-7	5	3	3	-16
O/N=C1\CCCCc2ccccc21	i	-15	-4	/	-21	7	7	8
CN1CC2(C)OC(=O)C(Cl)=C2CC1c1ccccc1 (centres undefined)	i	-13	30	/	/	-2	-5	-2
O=C(NCC(c1ccco1)N1CCc2ccccc21)c1cccc(F)c1 (centres undefined)	i	-1	/	/	-3	-1	-1	/
Cn1nc([N+](=O)[O-])nc1Sc1ccc(C(C)(C)C)cc1	i	-6	7	/	/	0	-3	1
CCNc1nc(NCC)nc(Oc2ccc(OCc3ccccc3)nn2)n1	i	-2	-1	-5	/	/	/	-7
Cc1ccc(Nc2nc(N)nc(CSC(=S)N3CCOCC3)n2)c(C)c1	i	/	-1	-7	/	2	-5	-10
CCOc1ccc(/C(C)=N/N2C(=O)C(CC(=O)Nc3ccc(OC)cc3[N+](=O)[O-])SC2=Nc2cccc(C)c2C)cc1 (centres undefined)	i	-10	8	3	-7	-5	-6	4
COc1cccc(=O)c2c(C)n(-c3cc(C)cc(C)c3)c(C)c12	i	6	9	-28	12	-37	3	-1
C[C@@H]1CC=C[C@H]2[C@H]1C(=O)N(Cc1ccccc1)[C@H]2c1ccc(F)c(-c2ccc(N(C)C)cc2)c1	i	33	-21	22	-21	-1	-5	-13
Cc1ccccc1-c1nc(CN(C)C(C)c2ccon2)c(C)o1 (centres undefined)	i	-15	-7	1	/	3	3	0
COc1cccc(C(O)c2ncc(-c3ccc4ccccc4c3)[nH]2)c1 (centres undefined)	/	/	/	13	-10	-1	0	/
CC(C)CCn1c(O)c(N=NC(=O)Cn2ccc(C(F)(F)F)n2)c2ccccc21	i	13	-13	-5	-21	8	2	1
CCCn1c(N2CCN(CC(=O)NCc3cccs3)CC2)nc2ccccc21	i	-3	9	-9	-12	1	2	3
COc1ccc(-c2nnnn2CCc2ccccc2)cc1	i	-4	-3	/	-13	3	0	-1
OC(COc1ccc2cc(Br)ccc2c1)CN1CCOCC1 (centres undefined)	i	23	4	-23	0	7	0	8
COc1ccc(C2=NN(CCC(=O)NCc3cccs3)C(=O)CC2)cc1	i	/	-4	-6	-18	0	-1	-8
CCn1c(=O)n(CC)c2cc(S(=O)(=O)Nc3cc(C)cc(C)c3C#N)ccc21	i	-6	1	9	7	-5	-3	-13
CCC(=O)N1CCc2cc(S(=O)(=O)N(CC)c3cccc(C)c3)ccc21	i	-14	-8	16	-12	3	-9	-6
O=C(O)CC(NCc1ccco1)C(=O)OCCCl (centres undefined)	i	2	-6	-15	/	-2	1	-12
CCNc1nc(NCC)nc(N(n2cnnc2)S(=O)(=O)c2ccc(C)cc2)n1	i	9	-5	-43	/	0	2	-2
O=C(Nc1ccc(F)cc1)c1cc(Cl)sc1Cl	i	-2	6	-22	/	-5	-1	-7
CCOc1cc(NC(=O)c2cnccn2)c(OCC)cc1NC(=O)c1cccc(F)c1	i	-16	-10	/	/	/	/	-6
CN1CCN(CC(=O)Nc2cccc([N+](=O)[O-])c2)CC1	i	-5	-1	2	-4	2	2	-2
CCSc1nc2c(c(=O)[nH]1)C(c1ccccn1)C1=C(CC(C)(C)CC1=O)N2 (centres undefined)	+	7	-5	-14	-6	1	3	-13
(listing goes on)
SMILES	Rce1 inhib	CSC inhib	PABP polyA inh	HIV Env fusion	Yeast UUG start	MT1-MMP act inh	MT1-MMP act inh RFP	eIF4H inh	others
COc1ccc(C(O)c2nc3ccccc3n2C(C)C)cc1 (centres undefined)	i	33	-9	-2	8	-8	-9	0
C/C(=N\Nc1ccc([N+](=O)[O-])cc1[N+](=O)[O-])C(C)C(C)C (centres undefined)	i	41	-16	17	/	20	13	-1
Cc1noc(C)c1CSCC(=O)Nc1ccc(OC(F)F)c(Cl)c1	i	-8	/	/	-13	1	-2	/
CNS(=O)(=O)c1ccc(NC(=S)Nc2ccc3c(c2)OCO3)cc1	i	-2	0	-27	/	-1	7	90	eIF4H inh retest=5;PABP polyA inh retest=-8

Gathered by group, the compounds so far with fluorine
SMILES	Rce1 inhib	CSC inhib	PABP polyA inh	HIV Env fusion	Yeast UUG start	MT1-MMP act inh	MT1-MMP act inh RFP	eIF4H inh	others
Cc1cc(=O)oc2cc(OCC(=O)Nc3c(Cl)cccc3C(F)(F)F)ccc12	i	-2	-3	-3	7	3	3	-7
CC(=O)c1cccc(NC(=O)CN(c2ccc(F)cc2)S(C)(=O)=O)c1	i	-1	2	/	-3	-3	0	-5
O=C(COC(=O)c1cc([N+](=O)[O-])ccc1N1CCOCC1)c1ccc(OC(F)F)cc1OC(F)F	i	0	/	-22	/	1	-5	/
O=C(Nc1ccc(C(=O)N2CCN(c3ccccc3F)CC2)cc1)C1=CSCCO1	i	-17	5	-7	5	3	3	-16
O=C(NCC(c1ccco1)N1CCc2ccccc21)c1cccc(F)c1 (centres undefined)	i	-1	/	/	-3	-1	-1	/
C[C@@H]1CC=C[C@H]2[C@H]1C(=O)N(Cc1ccccc1)[C@H]2c1ccc(F)c(-c2ccc(N(C)C)cc2)c1	i	33	-21	22	-21	-1	-5	-13
CC(C)CCn1c(O)c(N=NC(=O)Cn2ccc(C(F)(F)F)n2)c2ccccc21	i	13	-13	-5	-21	8	2	1
O=C(Nc1ccc(F)cc1)c1cc(Cl)sc1Cl	i	-2	6	-22	/	-5	-1	-7
CCOc1cc(NC(=O)c2cnccn2)c(OCC)cc1NC(=O)c1cccc(F)c1	i	-16	-10	/	/	/	/	-6
Cc1noc(C)c1CSCC(=O)Nc1ccc(OC(F)F)c(Cl)c1	i	-8	/	/	-13	1	-2	/
